Screening results (PubChem)
Sfp inh = qHTS Assay for Inhibitors of Bacillus subtilis Sfp phosphopantetheinyl transferase (PPTase); Potency, µM, for the others: max response, negative = inhibition, most hits filed as inhibitors; AID 1490, 2009; 4'-phosphopantetheinyl transferase ffp (Bacillus subtilis), Q9F4F7; Biochemical Sfp PPTase activity, qHTS; 310,000 tested, 3.5% active; active = well fitted inhibition curve with a large enough effect; inconclusive = small, poorly fitted or top-dose-only effect, or another doubt; inactive = no such curve, though single readings can be large or run the other way;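 also: the enzyme is Sfp with the accession as filed and its product quenches rhodamine fluorescence; potency is read from the fitted curve at half-maximal effect; 0% = enzyme reaction without inhibitor and -100% = no enzyme wells; top concentration of the series not given in the record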
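Buffer: 50 mM Hepes-Na pH 7.6, 10 mM MgCl2, 0.01% Nonidet P-40, 0.01% BSA. Enzyme 15 nM, pre-exposed to compound 15 min; substrates then added and fluorescence change tracked over 30 min.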
Menin-MLL FL inh = qHTS Assay for Inhibitors Targeting the Menin-MLL Interaction in MLL Related Leukemias: Competition With Fluorescein Labeled MLL-derived Peptide; Fluorescence polarization, fluorescein-MLL peptide displacement from menin; FP activity change, % at 61.4 µM; 290,000 tested, under 10 active; AID 1766, 2009; inconclusive = falling polarisation curve, or a change in total fluorescence; inactive = total fluorescence flat and polarisation flat or rising; no compound was filed as active; the % refers to the polarisation; negative = inhibition;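 also: % of control where 0% means no effect; inhibitors lower the polarisation; unlabelled MLL peptide was the positive control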
TRPML1 blocker = qHTS for Inhibitors of the Human Mucolipin Transient Receptor Potential 1 (TRPML1); activity change, negative = inhibition, % (concentration not given with the values); 390,000 tested, 0.02% active; AID 624415, 2012; TRPML1-inducible cells, Ca2+ dye fluorescence, FDSS; hits give low values; inhibition of EC80 agonist-evoked calcium signal; Mucolipin-1 (Homo sapiens), Q9GZU1; in the data active means activity change below about -50%; inconclusive means about -30% to -50%; inactive means above about -30%;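 also: stimulus is agonist 54-4 at its EC80 concentration; % is scaled to controls: 0 for no effect and ±100 for the full control effect; compound concentration not given in the record; the text of the record puts the active cut at -80%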
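Calcium fluorescence in TRPML1-DL cells induced overnight with Tet: a 110 s read after compound pin addition, then a 110 s antagonist read after challenge with 54-4 at 4 uM final (EC80).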
ClpP mod = qHTS Assay for Activators of ClpP; ATP-dependent Clp protease proteolytic subunit (Bacillus subtilis (strain 168)), P80244; purified B. subtilis ClpP, FRET peptide cleavage, 20 min; Potency, µM (titrated, usually from 57.5 µM), for the others: at the top dose activity change, negative = active; 340,000 tested, 1.9% active; AID 651965, 2013; active = well fitted falling curve with a large enough effect; inconclusive = small, poorly fitted or top-dose-only effect; inactive = no such curve, though single readings can be large or run the other way; also: potency is read from the fitted curve at half-maximal effect; the source files actives as falling curves though it sought activators and does not explain the sign; nearly all actives have a fitted effect of over 65% in size; many hits overshoot -100%
Target sequence (P80244 whole entry, looked up): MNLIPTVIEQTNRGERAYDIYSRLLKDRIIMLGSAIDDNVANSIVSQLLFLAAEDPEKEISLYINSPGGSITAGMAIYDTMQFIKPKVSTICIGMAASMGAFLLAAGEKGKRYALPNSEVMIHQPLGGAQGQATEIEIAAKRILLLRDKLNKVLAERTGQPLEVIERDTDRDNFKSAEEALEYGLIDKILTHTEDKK
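Purified B. subtilis ClpP, 10 microg/mL final in Tris/HCl pH8 with KCl, BSA, glycerol and Tween-20, cleaved an Abz/nitrotyrosine-quenched decapeptide. Fluorescence (ex 320, em 430) was read at 0 and 20 min at room temperature. Delta was normalized to 5.8 microM ADEP and DMSO/no-enzyme controls.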
gsp antagonist = qHTS for Antagonists of gsp, the Etiologic Mutation Responsible for Fibrous Dysplasia/McCune-Albright Syndrome: qHTS; AID 624288, 2012; 340,000 tested, 0.4% active; gsp-mutant cells, cAMP HTRF, 30 min; control for the full effect not named in the record; Potency, µM (series often up to 76.9 µM), for the others: top-dose activity change, negative = inhibition, usual class: inhibitors; active = falling curve of any shape with a large fitted effect; inconclusive = falling curve, mostly with a smaller effect; inactive = flat or rising curve; cell line not stated here;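 also: intracellular cAMP measured with PDE inhibitor Ro 20-1724 present during compound exposure; potency is read from the fitted curve at half-maximal effect; % is scaled to controls: 0 for no effect and ±100 for the full control effect; nearly all actives have a fitted effect of over 65% in size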
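Measurement of cellular cAMP by homogeneous time-resolved fluorescence following a 30 min compound exposure at 37C. The PDE inhibitor […] was present throughout; the assay buffer was DPBS with 0.05% BSA and 0.005% Tween 20.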
TRPV1 potentiator = HTS Assay for Compounds that Act as Potentiators of the Vanilloid Receptor 1 | TRPV1-expressing cells, Fluo-8 calcium influx, capsaicin EC20 potentiation; host cell line not named in the record; control for the full effect not named in the record | AID 540277, 2011 | Transient receptor potential cation channel subfamily V member 1 (Homo sapiens), Q8NER1 | 320,000 tested, 0.02% active | potentiation, % at 8.33 µM; active means potentiation above 80%; inconclusive means 30% to 80%; inactive means below 30%; also: 0% is about no effect
Target sequence (Q8NER1 whole entry, looked up): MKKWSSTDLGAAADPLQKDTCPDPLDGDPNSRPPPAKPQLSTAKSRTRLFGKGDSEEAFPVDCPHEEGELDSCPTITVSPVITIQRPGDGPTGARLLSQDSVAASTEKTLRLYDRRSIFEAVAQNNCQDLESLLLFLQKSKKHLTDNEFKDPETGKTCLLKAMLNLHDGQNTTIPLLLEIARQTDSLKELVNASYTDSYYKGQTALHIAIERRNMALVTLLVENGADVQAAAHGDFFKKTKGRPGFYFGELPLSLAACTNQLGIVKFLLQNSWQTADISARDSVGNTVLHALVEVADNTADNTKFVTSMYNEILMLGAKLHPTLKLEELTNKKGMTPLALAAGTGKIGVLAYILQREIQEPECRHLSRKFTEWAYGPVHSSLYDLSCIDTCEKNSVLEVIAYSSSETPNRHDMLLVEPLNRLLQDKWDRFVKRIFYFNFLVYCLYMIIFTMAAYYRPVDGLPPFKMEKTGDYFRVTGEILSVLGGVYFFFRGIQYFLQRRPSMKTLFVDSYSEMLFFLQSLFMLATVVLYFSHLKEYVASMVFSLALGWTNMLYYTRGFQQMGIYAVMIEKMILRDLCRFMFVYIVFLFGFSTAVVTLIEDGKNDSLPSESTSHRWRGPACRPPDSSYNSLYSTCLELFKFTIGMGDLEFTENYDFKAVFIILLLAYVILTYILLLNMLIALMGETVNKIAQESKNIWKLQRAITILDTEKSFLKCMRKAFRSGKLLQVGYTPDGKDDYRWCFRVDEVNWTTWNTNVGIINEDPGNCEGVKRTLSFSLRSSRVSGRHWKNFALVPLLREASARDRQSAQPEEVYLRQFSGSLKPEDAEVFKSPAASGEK
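Cells expressing TRPV1 were dye-loaded with Fluo-8 and read kinetically: 10 s baseline, 3 min after compound (agonist portion), then 2 min after EC20 capsaicin (allosteric enhancer portion). Calcium-bound dye fluorescence at 480/520 nm.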
gsp agonist = qHTS for Agonist of gsp, the Etiologic Mutation Responsible for Fibrous Dysplasia/McCune-Albright Syndrome: qHTS; gsp mutant cells, cAMP HTRF, 30 min; control for the full effect not named in the record; Potency, µM (doses to about 76.9 µM), without a hit: at the top dose activation (cAMP increase), usual class: activators; 340,000 tested, 0.13% active; active = well fitted activation curve with a large enough effect; inconclusive = small, poorly fitted or top-dose-only effect, or another doubt; inactive = no such curve, though single readings can be large or run the other way; cell line not stated here;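 also: phosphodiesterase inhibitor Ro 20-1724 added with compounds to block cAMP breakdown; potency is read from the fitted curve at half-maximal effect; nearly all actives have a fitted effect of over 60% in size; about a fifth of the inactives were tested at one dose only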
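Cells in DMEM/10% FBS with G418 were pretreated with compounds in DMSO plus […] (300 uM stock) for 30 min at 37C. cAMP was measured by HTRF (cAMP-d2 plus anti-cAMP antibody-K) after 30 min at room temperature.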
An asterisk follows results filed as active; ? = inconclusive; . = no result given; & = joins results of further samples; [ ] = dose if it differs, or a comment. Some of the compounds tested (hit frequency here may not be typical).

SMILES | Sfp inh | Menin-MLL FL inh | TRPML1 blocker | ClpP mod | gsp antagonist | TRPV1 potentiator | gsp agonist
CCOC(=O)C1CCCCC12C(C#N)=C(N)Oc1n[nH]c(C)c12 (stereo not given) | 12% | 1.3 | -25 | 16% | 15% | 4 | -10%
CCc1ccc(N2C(=O)NC(=O)/C(=C/c3cccn3CCOc3ccc(C(C)CC)cc3)C2=O)cc1 (stereo not given) | 11% | 15 | 77 | 1.4% | 74%[activator] | -10 | -6%
C=CC1CN2CCC1CC2[C@@H](OC(=O)c1ccc(OC)cc1)c1ccnc2ccccc12 (stereo not given in full) | -4% | -4.0 | 91 | -4.7% | -11% | -7 | 6%[15.4 µM]
CCn1c(O)c(C=NCCc2c[nH]c3ccccc23)c(=O)[nH]c1=O | 13% | 1.5 | -6 | 0.2% | 8% | 6 | 0%
Cc1ccc2nc(N3CCC(C(=O)N4CCC5(CC4)OCCO5)CC3)sc2c1 | 8% | 13 | 1 | -2.1% | -7% | -5 | 33%
COC(=O)C1=C(c2ccc(F)cc2OCc2ccccc2)C[C@@H]2CC[C@H]1N2C(=O)NCc1ccco1 | . | . | 43 | -1.1% | -15% | -6 | .
Cc1cc(OCCN2CC2)c2ccccc2n1 | -3% | -15 | . | . | . | 16 | .
CC1=CC(C)CC(C)OC(=O)CC(c2ccc(O)cc2)NC(=O)C(Cc2c(Br)[nH]c3ccccc23)N(C)C(=O)C(C)NC(=O)C(C)C1 (stereo not given) | . | . | 16 | -7.1% | 2% | . | 1%
CC(C)CCOP(N)(=O)Oc1ccccc1Cl (stereo not given) | 1% | -7.1 | -23 | 0.7% | 16% | 1 | -36%[inhibitor]
CNC(=S)N1CCN(CCN=Cc2c(O)n(-c3ccc(C)cc3)c(=S)[nH]c2=O)CC1 | -8% | 4.2 | 18 | 0.7% | 3% | 9 | 24%
Clc1cccc(C2NCCc3[nH]cnc32)c1 (stereo not given) | 15% | -1.8 | 13 | 1.3% | -3% | . | -1%
CCOc1cc(CNCCc2c[nH]c3ccccc23)cc(Cl)c1OCC | -7% | -0.6 | -30 | 0.5% | -17% | -6 | -17%
CC(C)[N+](C)(CCC(C(N)=O)(c1ccccc1)c1ccccc1)C(C)C | -74%&6%&16% | 0.2 | 1 | -0.7% | 0% | 6 | .
CCN(CC)C(=O)c1ccc(NC(=O)c2ccc(-c3nn(C)c(=O)c4ccccc34)cc2)cc1 | 7% | -2.0 | -7&3 | -1.8% | -9% | 5 | -4%[15.4 µM]
CCOC(=O)c1c(C)n(C(C)C)c2ccc(OC)cc12 | ? | 22 | 6 | . | 3% | -21 | 1%[15.4 µM]
c1ccc(CCN2CCC(N3CCN(c4ccccc4)CC3)CC2)cc1 | 11% | 4.1 | 3 | -0.4% | 6% | -6 | 10%
CCN(CC)c1ccc(/C=C/[N+](=O)[O-])cc1 | ? | ? | 1 | 2.3% | 15% | -6 | ?
CNC(=O)Oc1ccc(N(C)C)cc1C(C)C | 10% | -3.8 | -7 | -12% | 4% | ? | 7%
N#Cc1ccccc1Cn1cc(C(=O)c2ccco2)c2ccccc21 | 4% | 0.7 | 15 | -11% | -10% | 13 | -7%
Cc1cc(OCC(=O)Nc2c(C)n(C)n(-c3ccccc3)c2=O)c2c3c(c(=O)oc2c1)CCC3 | 17% | 1.4 | . | . | . | -6 | .
CC12CCC(O)CC1CCC1C2CCC2(C)C(C(=O)CC(O)C(F)(F)F)CCC12 (stereo not given) | . | . | 8 | 1.2% | -26% | . | -9%
Cc1cc(OCC(=O)NCc2cccnc2)c2c3c(c(=O)oc2c1)CCCC3 | 18% | . | -2 | 4.0% | -29% | -12 | 9%
CCOc1ccc(-n2c(CC)nc3ccccc3c2=O)cc1 | 2% | 1.4 | 21 | 1.1% | -3% | -4 | 12%
CN1CCCN(C(=O)COc2ccc(F)cc2Cl)CC1 | 7% | . | 18 | 0.8% | 16% | 3 | 16%
CN(C)c1ccc(/C=C2\CC3C4CC=C5CC(O)CCC5(C)C4CCC3(C)C2=O)cc1 (stereo not given) | -11% | 26 | -8 | 2.3% | 1% | -7 | -13%
COc1ccc(Oc2cc(NC(=O)c3nn(C)cc3[N+](=O)[O-])cc([N+](=O)[O-])c2)cc1 | 9% | 4.2 | 18 | 0.9% | -10% | 3 | -21%
CC[C@H]1CN2CCC1C[C@@H]2[C@H](O)c1ccnc2ccc(OC)cc12 (stereo not given in full) | . | . | 0 | 4.2% | 3% | . | .
COc1cccc(CN2CCN(Cc3cccc(F)c3)CC2)c1 | ? | -2.0 | . | -0.8% | 7% | -9 | -25%
Cc1ccccc1CN1CCN(c2ccc(Cl)cc2)CC1 | 50µM* | 5.9 | -16 | . | 8% | 3 | 2%[15.4 µM]
CC1(C)CC(n2[nH]c(=O)c3c2NC(=O)CSC3c2ccccc2)CCO1 (stereo not given) | 20% | 2.3 | 86 | 2.1% | -7% | 6 | 21%
O=C1CCCN1c1ccc(S(=O)(=O)O)cc1 (tested in a mixture with another compound) | 10% | 1.0 | -23 | -3.9% | ? | 4 | 8%
O=C(O)c1ccccc1N=Nc1c(O)[nH]c(=O)[nH]c1=O | -6% | 0.3 | . | -4.7% | 3% | 4 | 1%
Cc1c2cnn(CC(=O)N3CCC4(CC3)OCCO4)c(=O)c2c(C)n1Cc1ccc(F)cc1 | 18% | -0.6 | 31 | ? | -3% | -13 | 3%
Cc1ccc(Cn2nc(C(=O)Nc3ccc(Br)cc3)cc2C)cc1 | -4% | 2.5 | 67 | . | -9% | -3 | -13%
NC(N)=N/N=C/c1ccc(N2CCOCC2)cc1 | 2% | -4.4 | 29 | 3.7% | -24% | -4 | -13%
COc1cc(C(CN)CC(=O)O)ccc1O (stereo not given) | 5% | -2.2 | 3 | 2.3% | 10% | -15 | -20%
Cc1ccc(S(=O)(=O)N2CCCC(C(=O)N3CCC4(CC3)OCCO4)C2)cc1 (stereo not given) | 12% | 0.7 | -5 | -0.4% | -18% | -3 | -16%
C1=C(c2c[nH]c3ccccc23)CCN(Cc2ccccc2)C1 | 12% | -0.2 | 14 | -10% | 15% | 4 | -6%
COCCN1C(=O)NC(=O)/C(=C\c2ccc(F)cc2)C1=O | ? | 3.3 | -2 | 1.5% | 10% | 3 | -6%
Cc1ccc(NC(=O)c2cc(-c3ccccc3)n(CCCN3CCOCC3)c2C)cc1 | -7% | -0.5 | 7 | -1.1% | -14% | -21 | 15%[15.4 µM]
O=[As](O)(O)c1ccc(N=Nc2ccc(O)cc2)cc1 | -4% | 0.0 | -5 | 2.4% | -2% | 10 | 16%
O=C1C2C3CCC(O3)C2C(=O)N1c1cccc(F)c1 (stereo not given) | . | . | -1 | 1.0% | 1% | . | -12%
CCn1nc(/C=C/c2ccccc2)nc2c(=O)n(C)c(=O)nc1-2 | ? | -11 | 4 | . | ? | -15 | 45%[15.4 µM]
CC(C)(C)N(NC(=O)c1ccccc1)C(=O)c1ccccc1 | 6% | 5.7 | 3 | -2.6% | 0% | . | -8%
CN(C)c1nc(OCCNC(=O)COc2ccc(Cl)cc2Cl)nc(N2CCCCC2)n1 | 16% | 11 | -11 | 0.8% | 1% | -7 | -3%
O=C1/C(=C\c2ccc([N+](=O)[O-])cc2)N2CCC1CC2 | -6% | -2.1 | 17 | . | 3% | -5 | -6%[15.4 µM]
Cc1ccccc1CCNCc1cc2cccc(C)c2[nH]c1=O | 4% | 1.1 | . | -27% | -7% | 5 | -7%
CC(=O)N1N=C2C3CCN(CC3)C2C1c1ccc(F)cc1 (stereo not given) | -16% | 3.0 | 7 | -1.1% | 9% | 6 | 7%[15.4 µM]
CC(=O)Nc1ccc(N=Cc2c(O)n(Cc3ccco3)c(=O)[nH]c2=O)cc1 | -14% | 6.3 | 2 | . | -6% | -24 | 5%[15.4 µM]
COc1cc2c3cc1Oc1cc(ccc1O)C[C@@H]1c4c(cc(OC)c(O)c4Oc4cccc(c4)C[C@@H]3N(C)CC2)CC[N+]1(C)C | . | . | -10 | -0.5% | -3% | 0 | .
O=C(N/N=C/c1c(O)n(-c2ccccc2)c(=O)[nH]c1=O)c1ccncc1 | -11% | . | 4 | -6.2% | 8% | -18 | -11%
COC(=O)C1=C(c2ccc(S(C)(=O)=O)cc2)C[C@@H]2CC[C@H]1N2C(=O)NCCCOC(C)C | . | . | 42 | 0.1% | 5% | . | -2%
O=C(Nc1cccc(OC(=O)N2CCCCC2)c1)N1CCOCC1 | 0% | 0.0 | -1 | -5.1% | -9% | -19 | -10%
Fc1ccc2c(c1)nnn2C1CCN(Cc2nnnn2CCc2ccccc2)CC1 | -7% | -1.3 | 5 | 0.4% | -24% | -4 | 0%

3 compounds picked at random from the list so far:
SMILES | Sfp inh | Menin-MLL FL inh | TRPML1 blocker | ClpP mod | gsp antagonist | TRPV1 potentiator | gsp agonist
O=C1/C(=C\c2ccc([N+](=O)[O-])cc2)N2CCC1CC2 | -6% | -2.1 | 17 | . | 3% | -5 | -6%[15.4 µM]
CN(C)c1nc(OCCNC(=O)COc2ccc(Cl)cc2Cl)nc(N2CCCCC2)n1 | 16% | 11 | -11 | 0.8% | 1% | -7 | -3%
CN(C)c1ccc(/C=C2\CC3C4CC=C5CC(O)CCC5(C)C4CCC3(C)C2=O)cc1 (stereo not given) | -11% | 26 | -8 | 2.3% | 1% | -7 | -13%
